# CHT inh: inhibitors of human choline transporter CHT. B-score at 10 µM. CHT-expressing cells, membrane potential dye, choline response; active compounds read low. hit rate 0.86% among 310,000;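 active = B-score over 3 SD under the library average, and starting fluorescence ratio not unusually high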;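 also: choline stimulus applied at its EC90 after an EC20 pre-addition; B-score computed on integrated fluorescence ratio after choline addition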
# Target sequence (Q9GZV3 whole entry, looked up): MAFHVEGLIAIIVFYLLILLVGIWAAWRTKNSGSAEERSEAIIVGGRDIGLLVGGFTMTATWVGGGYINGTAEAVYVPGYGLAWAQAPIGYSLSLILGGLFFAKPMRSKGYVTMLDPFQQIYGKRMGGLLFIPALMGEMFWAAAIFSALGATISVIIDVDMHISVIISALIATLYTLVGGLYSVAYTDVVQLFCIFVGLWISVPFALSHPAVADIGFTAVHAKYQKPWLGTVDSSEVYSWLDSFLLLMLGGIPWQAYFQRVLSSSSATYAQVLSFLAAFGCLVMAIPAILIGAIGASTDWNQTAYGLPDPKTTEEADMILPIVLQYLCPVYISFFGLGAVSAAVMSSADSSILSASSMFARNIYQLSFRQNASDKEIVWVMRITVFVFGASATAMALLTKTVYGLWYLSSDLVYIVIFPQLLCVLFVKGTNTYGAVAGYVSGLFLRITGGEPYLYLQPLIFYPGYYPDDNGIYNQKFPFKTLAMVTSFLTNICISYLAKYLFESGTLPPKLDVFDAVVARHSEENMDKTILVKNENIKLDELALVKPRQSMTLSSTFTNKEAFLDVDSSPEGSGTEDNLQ
# Calls only; i = inactive. These rows are one share of the data, and most or all hits are left out here.
CHT inh,Structure
i,Cc1cccc(OCCCC(=O)NC(C)c2ccccc2)c1 (centres undefined)
i,CCOC(=O)N1CCN(C(=O)CSc2cc(C)nc3c(-c4ccccc4OC)c(C)nn23)CC1
i,COc1ccc(NC(=O)c2ccc(COCC(F)(F)F)cc2)cc1OC
i,CCc1noc(C)c1C(=O)NNC(=O)c1cc(OC)c(OC)c(OC)c1
i,CCc1cccc(C)c1NC(=O)C1=C(C(=O)O)CCCC1
i,Cc1ccc(N2C(=O)CN(Cc3sccc3C)C2=S)cc1C
i,Cc1cccc(NC(=O)C2CCN(S(=O)(=O)c3cccc4nonc34)CC2)c1
i,CC(C)=CCN1CCN(Cc2ccc3nsnc3c2)CC1CCO (centres undefined)
i,O=C(NCCC(=O)N1CCCC(C(F)(F)F)C1)c1ccc(Br)cc1 (centres undefined)
i,CCN1CCN(C2CCCCC2NS(=O)(=O)c2ccc(Cl)cc2)CC1 (centres undefined)
i,CC(C)(C)C1(C)OC(C(N)=O)C(C(N)=O)O1 (centres undefined)
i,COc1ccc(NC(=O)c2nc[nH]c2C(=O)Nc2ccccc2C)cc1
i,O=C(Nc1nccs1)C1Cc2ccccc2CN1S(=O)(=O)c1ccc(F)cc1 (centres undefined)
i,CN(C[C@@H](CC1CCCCC1)N(C[C@H](Cc1ccccc1)N(CCc1ccccc1)N=O)N=O)N=O
i,CC(C(=O)O)n1nnc2ccccc21 (centres undefined)
i,Cc1cc(Br)ccc1SCC(=O)OCC(=O)NC(C)c1ccccc1 (centres undefined)
i,COc1ccccc1N(CC(=O)NC1CCCCC1)C(=O)CNC(=O)c1cccs1
i,Cc1ccc(-c2nc(-c3cccnc3)sc2CC(=O)Nc2ccc3nc(C)sc3c2)cc1
i,CCOC(=O)NC1=NCC(C)S1 (centres undefined)
i,COc1ccc(/C=N/Nc2cc(=O)n(C)c(=O)n2C)cc1OC
i,CC(C)NC(=O)CSc1nc2[nH]ncc2c(=O)[nH]1
i,CSCCC(NC(=O)C12CC3CC(CC(C3)C1)C2)C(=O)OCC(=O)c1ccc(Cl)cc1 (centres undefined)
i,Cn1cccc1CC(=O)NNC(=O)Nc1cccc(Cl)c1
i,O=C(Nc1ccccc1F)c1ccc2snnc2c1
i,CC(C)(C)c1ccc(OCCC(=O)NNC(=O)c2ccccc2)cc1
i,COc1ccc(-c2nc(CSCC(=O)N3CCN(c4cccc(C)c4)C(C)C3)c(C)o2)cc1OC (centres undefined)
i,COc1ccc(NC(=O)OCCn2c([N+](=O)[O-])cnc2C)cc1
i,CCOc1cc(N2CCOCC2)c(OCC)cc1NC(=O)COC(=O)[C@H](Cc1c[nH]c2ccccc12)NC(C)=O
i,O=C(COc1ccc(F)cc1)N(CC1=CCS(=O)(=O)C1)c1ccccc1
i,CCOC(=O)c1c(C)[nH]c(C(=O)OCC(=O)Nc2cc(C)nn2-c2ccccc2)c1C
i,O=C(Nc1cc(Cl)ccc1C(=O)O)c1ccc(CN2C(=O)c3ccccc3C2=O)cc1
i,O=C(NC(=S)Nc1ncccn1)c1ccccc1Cl
i,Cc1cc(-c2ccc(S(=O)(=O)N(C)Cc3ccccc3)cc2)on1
i,CCCCS(=O)c1c(O)c2ccccc2[nH]c1=O (centres undefined)
i,O=C(Nc1ccccc1N1CCOCC1)c1ccc(N2CCOCC2)c([N+](=O)[O-])c1
i,CCCNC(=O)NC(=O)CSc1nc2ccccc2n1CC(C)C
i,O=C(CSc1nnc(-c2cccs2)n1-c1cccc(Cl)c1)c1cccc2c1OCCO2
i,CC(c1ccon1)N(C)C(=O)c1ccc(OC2CCN(C(=O)C3CC3)CC2)cc1 (centres undefined)
i,COc1ccc(OC)c(C(=O)c2oc3ccccc3c2NC(C)=O)c1
i,CC(=O)Nc1ccc(S(=O)(=O)N2CCC(C(=O)c3ccc(Cl)cc3)CC2)cc1
i,COc1ccccc1NC(=O)CNC(=O)c1ccc(F)cc1
i,COc1ccc(NC(=O)CCC(=O)c2cccs2)cc1S(=O)(=O)Nc1ccc(Cl)cc1
i,CCCn1c2c(c(O)c(C(=O)Nc3ccccc3)c1=O)CCCC2
i,O=[N+]([O-])c1ccccc1S(=O)(=O)Nc1ccc(S(=O)(=O)Nc2nccs2)cc1
i,CCOC(=O)c1oc2c(CN3CCN(C)CC3)c(O)ccc2c(=O)c1-c1ccccc1OC
i,COc1ccccc1NC(=O)NNC(=O)C(C)Oc1ccc2ccccc2c1 (centres undefined)
i,Cc1nc([N+](=O)[O-])c(Br)n1CC(=O)c1ccccc1
i,O=C(Cc1cc(=O)[nH][nH]1)N/N=C/c1cccc(Cl)c1Cl
i,COc1ccc(/C=C(/C(=O)NCc2ccccc2)c2ccccc2)cc1
i,O=C(CCC(=O)N1CCN(S(=O)(=O)c2ccc3ccccc3c2)CC1)Nc1cc(Cl)cc(Cl)c1
i,CC(=O)Nc1ccc(S(=O)(=O)N2CCC(C(=O)NCc3ccncc3)CC2)cc1
i,CCn1c(C(=O)N2CCc3ccccc3C2)cc2oc3ccccc3c21
i,CCc1nc(N2CCC3(CC2)OCCO3)c2nnn(Cc3ccccc3Cl)c2n1
i,Cc1nnc(SCC(=O)Nc2ccccc2N2CCOCC2)s1
i,CCOC(=O)C1=C(C)NC(=O)C(C(N)=O)C1c1ccccc1 (centres undefined)
i,O=C1/C(=C/c2cccnc2)CCc2c1[nH]c1ccccc21
i,O=c1[nH]c(CN2CCN(c3ccccc3O)CC2)nc2ccccc12
i,COc1ccccc1C(=O)Nc1ccc(N2CCCCC2)cc1
i,CCN(C(=O)CSc1nc2ccccc2c(=O)n1C(C)COC)C1CCS(=O)(=O)C1 (centres undefined)
i,O=C(CSc1ncn(-c2ccccc2)n1)Nc1nc2ccccc2s1

# Continuation:
CHT inh,Structure
i,Cc1cccc(-n2ncc3c(NCCc4ccc(S(N)(=O)=O)cc4)ncnc32)c1
i,COC(=O)c1ccccc1-c1ccc(/C=N/NC(=O)c2cc3ccccc3o2)o1
i,CCC(=O)Nc1ccc(-c2ccc(NC(=O)CC)c(OC)c2)cc1OC
i,Cc1cc(=O)n2[nH]c(C)c(-c3ccc(Cl)cc3)c2n1
i,Cc1ccc(NC(=O)N2CCCC2C(=O)NCCC2=CCCCC2)cc1 (centres undefined)
i,O=C(NCCc1cnc[nH]1)Nc1cccc(C(F)(F)F)c1
i,CC(=O)c1c(C)oc(C)c1CSCc1ccc(C(=O)O)o1
i,CC1CCCCN1C(=O)C12CCC(C)(/C(=N/O)C1)C2(C)C (centres undefined)
i,COc1ccc(OC)c(/C=N/NC(=O)CNC(=O)c2ccc(S(=O)(=O)N3CCOCC3)cc2)c1
i,Cc1nc(CCNC(=O)CC2C(=O)NCCN2Cc2ccc(F)cc2)sc1C (centres undefined)
i,COc1ccc(CCN(Cc2cccs2)S(=O)(=O)c2ccc(S(=O)(=O)N3CCC(C)CC3)cc2)cc1OC
i,Cc1ccc(OCCNC(=O)CNC(=O)c2ccc3c(c2)OCO3)cc1
i,CN1CCC(=NNC(=O)COc2ccc(Cl)cc2)CC1
i,COC(=O)c1cn(NC(=O)c2ccc(OC)c(OC)c2)c(=O)c2ccccc12
i,CCOC(=O)CC1=C(C(=O)OCC)C(c2cc(OC)c(OC)cc2OC)C(C#N)=C(N)O1 (centres undefined)
i,Cc1ccc(-c2noc(C3CCCN(C(=O)c4cccc(Cl)c4)C3)n2)o1 (centres undefined)
i,COc1ccc(NC(=O)COC(=O)c2ccc(OCc3ccccc3Cl)c(OC)c2)c(OC)c1
i,CN(Cc1nc2ccc(F)cc2[nH]1)C(=O)C1CCC(=O)N(C2CC2)C1 (centres undefined)
i,CN(Cc1cn[nH]c1-c1cc2ccccc2o1)CC1CCOCC1
i,CCOc1ccc(-c2csc3ncn(-c4ccc(OC)cc4)c(=O)c23)cc1
i,O=S(=O)(NC(=NCc1ccccc1)c1ccccc1)c1ccc(Br)cc1
i,COC(=O)c1ccc(/C=N\N2CCN(Cc3ccc(C)cc3)CC2)cc1
i,Cc1ccc(NS(=O)(=O)c2cc(C(=O)Nc3cccc(N(C)S(C)(=O)=O)c3)ccc2C)c(C)c1
i,O=C(Nc1cc(Cl)ccc1N1CCOCC1)c1ccco1
i,Cc1ccc(S(=O)(=O)c2c(C)nn(-c3ccccc3)c2OC(=O)c2ccco2)cc1
i,CC1CC(=O)N(CC(=O)Nc2cccc(Cl)c2)c2ccccc2S1(=O)=O (centres undefined)
i,CC(=O)c1ccc(OCC(=O)N(CCC2=CCCCC2)c2c(N)n(Cc3ccccc3)c(=O)[nH]c2=O)cc1
i,CCOC(=O)Cn1c(-c2ccc(Cl)nc2)nc2ccccc21
i,COc1ccc(C(=O)COC(=O)c2c(-c3ccccc3)noc2C)c(OC)c1
i,CCNCCNc1ccc(Cl)cc1[N+](=O)[O-]
i,O=C(CCS(=O)(=O)c1ccc(F)cc1)N1CCOCC1
i,COc1ccc2oc(=N)c(C(=O)Nc3ccc(C)cc3)cc2c1
i,COC(=O)c1ccc(CN2C(=O)C(C)N(C(=O)c3c(F)cccc3F)c3ccccc32)cc1 (centres undefined)
i,O=C(c1ccc(-c2ccccc2)c(F)c1)C1CCCN(CCCn2cccn2)C1 (centres undefined)
i,CCCS(=O)(=O)N1CCCC(C(=O)NCCc2ccc(OC)c(OC)c2)C1 (centres undefined)
i,Cc1cccc(NC(=O)CSc2ccc(-c3cccnc3)nn2)c1
i,Nc1c(C(=O)NCC2CCCO2)sc(=S)n1-c1ccccc1 (centres undefined)
i,COc1cc(NC(=O)COC(=O)C=C(C)C)c(C)cc1[N+](=O)[O-]
i,CC(=O)N1c2ccccc2NC2=C(C(=O)CC(C)(C)C2)C1c1cccn1C (centres undefined)
i,O=C(COC(=O)C1CCN(S(=O)(=O)c2cccs2)CC1)Nc1ccc(F)cc1F
i,CCOC(=O)c1sc(Nc2nc(OC)cc(OC)n2)nc1C
i,CC(C)CCNC1=CC(=O)CC(c2ccccc2)C1 (centres undefined)
i,CC(=O)Nc1c(F)cc(Br)cc1F
i,C[C@@H]1CN(C(=O)c2nc3ccc(Cl)cn3c2CNCC[C@@H]2C[C@@H]3C=C[C@H]2C3)C[C@H](C)O1
i,CCOC(=O)c1c(NC(=O)C2CCCCC2)sc2c1CCN(CC)C2
i,COc1cc(OC)c(C2SCCN2S(=O)(=O)c2ccc(F)cc2)cc1OC (centres undefined)
i,CNC(=O)/C(C#N)=C\c1ccc(CNS(=O)(=O)c2ccccc2)o1
i,COc1ccc(S(=O)(=O)N2CCc3ccccc32)cc1C(=O)NCCc1ccccn1
i,Cc1cc(NC(=O)CSc2nc(C(C)C)nc3ccccc23)no1
i,COC(=O)COc1ccc2occ(C(C)=O)c2c1
i,O=C(CO/N=C/c1ccc(OC(F)F)cc1)NC1CCCC1
i,COc1cc(OC)c(NC(=O)c2ccccc2F)cc1Cl
i,CCC(=O)Nc1ccc(/C(C)=N\NS(=O)(=O)c2ccc(C)cc2)cc1
i,Nc1c(Cl)cc(-c2csc(NCCc3nc4cc(Cl)c(Cl)cc4n3CCCO)n2)cc1Cl
i,COc1cc(OC)cc(C(=O)N2CCC(C(=O)c3ccc(F)cc3)CC2)c1
i,Cc1ccc2c(c1)C1C=CCC1C(C(=O)NCCCN1CCOCC1)N2 (centres undefined)
i,CC(C)N1CC=C2C(C#N)=C(N)C(C#N)(C#N)C(c3ccccc3)C2C1 (centres undefined)
i,CCOC(=O)C1CCN(Cc2cnc(Oc3ccc(C(C)(C)C)cc3)s2)CC1
i,CCC(=O)N1CCc2cc(S(=O)(=O)NCCCN(CC)Cc3ccccc3)ccc21
i,C=CCSc1ncccc1C(=O)NCCc1ccc(Cl)cc1

# Reprinted from the part before: 7 compounds, then new ones.
CHT inh,Structure
i,Nc1c(Cl)cc(-c2csc(NCCc3nc4cc(Cl)c(Cl)cc4n3CCCO)n2)cc1Cl
i,COc1cc(OC)cc(C(=O)N2CCC(C(=O)c3ccc(F)cc3)CC2)c1
i,Cc1ccc2c(c1)C1C=CCC1C(C(=O)NCCCN1CCOCC1)N2 (centres undefined)
i,CC(C)N1CC=C2C(C#N)=C(N)C(C#N)(C#N)C(c3ccccc3)C2C1 (centres undefined)
i,CCOC(=O)C1CCN(Cc2cnc(Oc3ccc(C(C)(C)C)cc3)s2)CC1
i,CCC(=O)N1CCc2cc(S(=O)(=O)NCCCN(CC)Cc3ccccc3)ccc21
i,C=CCSc1ncccc1C(=O)NCCc1ccc(Cl)cc1
i,COc1ccc(-n2c(SCC(=O)Nc3cc(C)on3)nc3c([nH]c4ccccc43)c2=O)cc1OC
i,C=C(C)C1CC=C(C)/C(=N/NC(=O)COc2ccccc2C)C1 (centres undefined)
i,COc1ccc(C2Oc3ccccc3C3=C2C(c2cccs2)n2ncnc2N3)cc1 (centres undefined)
i,O=C(c1cc([N+](=O)[O-])ccc1N1CCCCC1)N1CCCC1
i,O=C(O)CCCCCN1C(=O)/C(=C/c2ccncc2)SC1=S
i,CCOC(=O)C1(CCc2ccccc2)CCN(C(=O)CCc2cnn(C)c2)CC1
i,COc1ccc(N2CCN(C(=O)C(NC(=O)c3c(F)cccc3F)C(C)C)CC2)cc1 (centres undefined)
i,O=C(Cn1cnc2c(nnn2Cc2ccccc2)c1=O)NCc1ccco1
i,O=C(NC1CC2CCCC(C1)N2C(=O)N1CCCCC1)C1CCCCC1 (centres undefined)
i,O=C(CN1C(=O)NC2(CCCCC2)C1=O)N1CCc2ccccc2C1
i,c1ccc2c(-c3[nH]ncc3CNCCCn3ncc4ccccc43)cccc2c1
i,COc1ccc(CNC(=O)CN(C(=O)CCC(=O)Nc2ccccn2)c2ccc(C)cc2)cc1

# Exported as tab-separated lines: entries from further up.
canonical_smiles	CHT inh
COc1ccc(-n2c(SCC(=O)Nc3cc(C)on3)nc3c([nH]c4ccccc43)c2=O)cc1OC	i
C=C(C)C1CC=C(C)/C(=N/NC(=O)COc2ccccc2C)C1 (centres undefined)	i
COc1ccc(C2Oc3ccccc3C3=C2C(c2cccs2)n2ncnc2N3)cc1 (centres undefined)	i
O=C(c1cc([N+](=O)[O-])ccc1N1CCCCC1)N1CCCC1	i
O=C(O)CCCCCN1C(=O)/C(=C/c2ccncc2)SC1=S	i
CCOC(=O)C1(CCc2ccccc2)CCN(C(=O)CCc2cnn(C)c2)CC1	i

# Screens: PubChem, Johns Hopkins Ion Channel Center
